RORgamma inh = qHTS for inhibitors of ROR gamma transcriptional activity; Nuclear receptor ROR-gamma (Mus musculus), P51450; Potency, µM (top dose mostly 53.6 µM), inactives show top-dose activity change, negative = inhibition, actives largely listed as inhibitors; actives 5.4% (n = 310,000); AID 2551, 2010; Drosophila S2 Gal4-RORgamma UAS-luciferase reporter, 20 h; further: potency means the concentration at half of the fitted maximal effect; on the % scale 0 is the no-effect control and ±100 the full control effect; nearly all actives have a fitted effect of over 60% in size
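Schneider cells (Drosophila), stable Gal4 DBD–ROR gamma + UAS-luc; 1 hr cmpd preincubation; Cu2+ induction 700 uM final; 20 hr ambient; luminescence.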
FLuc modulator = qHTS profiling assay for firefly luciferase inhibitor/activator using purifed enzyme and Km concentrations of substrates (counterscreen for miR-21 project); purified FLuc, Km substrates, luminescence inhibition; Luciferin 4-monooxygenase (Photinus pyralis), P08659; actives 6.9% (n = 360,000); Potency, µM (series often up to 57.5 µM), inactives show top-dose activity change, negative = inhibition, most hits filed as inhibitors;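 further: potency means the concentration at half of the fitted maximal effect; plate controls were vehicle for no effect and reference inhibitor for full effect; nearly all actives have a fitted effect of over 55% in size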
Target sequence (P08659 whole entry, looked up): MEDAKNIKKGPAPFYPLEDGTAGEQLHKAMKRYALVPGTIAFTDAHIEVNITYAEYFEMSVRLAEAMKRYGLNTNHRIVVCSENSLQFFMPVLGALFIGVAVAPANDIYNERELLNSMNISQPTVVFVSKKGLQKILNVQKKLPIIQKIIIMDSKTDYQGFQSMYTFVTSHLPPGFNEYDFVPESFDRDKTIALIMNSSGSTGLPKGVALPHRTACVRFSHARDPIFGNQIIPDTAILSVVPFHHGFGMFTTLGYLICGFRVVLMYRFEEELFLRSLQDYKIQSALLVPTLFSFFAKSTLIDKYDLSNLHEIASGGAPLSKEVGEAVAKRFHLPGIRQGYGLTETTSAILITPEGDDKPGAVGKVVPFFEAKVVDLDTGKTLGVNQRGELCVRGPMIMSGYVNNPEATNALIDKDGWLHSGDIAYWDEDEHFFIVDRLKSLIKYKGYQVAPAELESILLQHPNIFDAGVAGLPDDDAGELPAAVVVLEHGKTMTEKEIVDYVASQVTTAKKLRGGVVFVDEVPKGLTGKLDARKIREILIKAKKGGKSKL
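Purified P. pyralis luciferase, 10 nM final, with Km-level 10 uM D-luciferin and 10 uM ATP in 50 mM Tris acetate pH 7.5, 10 mM Mg acetate, 0.01% Tween-20, 0.05% BSA; 6-point qHTS titration about 60 µM downward; luminescence read.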
Gal4-VP16 FLuc = VP16 counterscreen qHTS for inhibitors of ROR gamma transcriptional activity; Drosophila S2 Gal4-VP16 UAS-luciferase, luminescence, 20 h; Potency, µM (doses to about 53.6 µM), inactives show at the highest dose activity, negative = inhibition, hits mostly inhibitors; AID 2546, 2010; actives 3.5% (n = 310,000);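 further: Gal4-VP16 expression switched on by copper sulfate through the metallothionein promoter; potency means the concentration at half of the fitted maximal effect; on the % scale 0 is the no-effect control and ±100 the full control effect; nearly all actives have a fitted effect of over 50% in size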
Giardia killer = Small Molecules that selectively kill Giardia lamblia: qHTS | Giardia lamblia trophozoite viability | activity change, % at 7.66 µM, hits read low | actives 0.15% (n = 340,000); in the data active means activity change below about -80%; inconclusive means between about -30% and that limit;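 further: parasites exposed to compound for two days anaerobically before the ATP read; on the % scale 0 is the no-effect control and ±100 the full control effect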
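Compounds were tested on trophozoites seeded at 100 cells/well and held 48 hrs at 37 deg C anaerobically. An ATP-based luminescent kit measured the remaining live cells.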
Coupling enz = qHTS Assay for Inhibitors of Fructose-1,6-bisphosphate Aldolase from Giardia Lamblia: Coupling assay counterscreen; activity change, negative = inhibition, % at 58.2 µM, hits read low; coupling enzyme system counterscreen, AmpLite Red fluorescence; actives 0.67% (n = 290,000); in the data active means activity change below about -30%; further: on the % scale 0 is the no-effect control and ±100 the full control effect
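Final compound at 57.5 uM, incubated 10 min at RT with coupling enzyme reagent (glyceraldehyde-3-phosphate), then 20 min with substrate and AmpLite Red detection. Fluorescence read at 525/598 nm; tests interference with the coupling assay, not aldolase inhibition.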
uPA surface inh = qHTS for Inhibitors of Cell Surface uPA Generation. cell surface uPA generation assay, qHTS. Potency, µM (series often up to 38.3 µM), without a hit: at the top dose activity change, negative = inhibition, most hits filed as inhibitors. actives 0.31% (n = 330,000). AID 540303, 2011; active means well fitted inhibition curve with a large enough effect; inconclusive means small, poorly fitted or top-dose-only effect; inactive means no such curve, though single readings can be large or run the other way; tested in mouse RAW 264.7 cells; further: potency means the concentration at half of the fitted maximal effect; on the % scale 0 is the no-effect control and ±100 the full control effect; nearly all actives have a fitted effect of over 55% in size
NPC1 prom act = qHTS Assay for NPC1 Promoter Activators; Huh7 NPC1 promoter luciferase reporter, 24 h; Potency, µM (doses to about 9.22 µM), without a hit: at the highest dose activation, most hits filed as activators; actives 2.4% (n = 320,000);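 further: potency means the concentration at half of the fitted maximal effect; % of control where 0% means no effect; nearly all actives have a fitted effect of over 60% in size; reporter is driven by a mutant NPC1 promoter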
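Huh7 cells stably carrying NPC1 promoter–luciferase, plated in Opti-MEM with 10% FBS for 2 h, were exposed to compound in DMSO for 24 h at 37 °C; luciferase reagent was added for 10 min and luminescence read.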
Tb PFK block = qHTS Assay to Find Inhibitors of T. brucei phosphofructokinase. ATP-dependent 6-phosphofructokinase (Trypanosoma brucei brucei), O15648. T. brucei PFK, ADP-Glo luminescence. Potency, µM (doses to about 57.5 µM), for inactives: at the highest dose activity, negative = inhibition, hits mostly inhibitors. actives 0.17% (n = 330,000);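 further: potency means the concentration at half of the fitted maximal effect; 0% = uninhibited 1x PFK enzyme wells and -100% = no-enzyme wells; nearly all actives have a fitted effect of over 60% in size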
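1.25 nM PFK with 0.5 mM F6P and 0.1 mM ATP in 0.1 M TEA pH 8.0, 5 mM MgCl2, incubated 45 min at room temperature; ADP measured by ADP-Glo luminescence; compounds titrated up to 57 uM.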
ELG1 genotoxic = qHTS screen for small molecules that induce genotoxicity in human embryonic kidney (HEK293T) cells expressing luciferase-tagged ELG1 | HEK293T ELG1-luciferase reporter, luminescence, 16 h | Potency, µM (doses to about 46 µM), without a hit: top-dose activity change, positive = activation, hits mostly activators | actives 1.3% (n = 330,000) | AID 504466, 2011; further: potency means the concentration at half of the fitted maximal effect; % of control where 0% means no effect; nearly all actives have a fitted effect of over 60% in size
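Quantitative HTS format in 1536-well plates. HEK293T ELG1-luciferase reporter cells receive test compound and are incubated 16 hr at 37 °C, 5% CO2; ONE-Glo added, 30 min room temperature, then luminescence read.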
Rab9 prom act = qHTS Assay for Rab9 Promoter Activators; Huh7 Rab9 promoter-luciferase reporter, luminescence, 24 h; Potency, µM (top dose mostly 9.22 µM), for inactives: at the top dose activation, negative = inhibition, most hits filed as activators; actives 2.8% (n = 320,000); further: potency means the concentration at half of the fitted maximal effect; % of control where 0% means no effect; nearly all actives have a fitted effect of over 60% in size
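Steps: seed 1500 Huh7 Rab9-luc cells per well, rest 2 h at 37 °C; add compound in DMSO; incubate 24 h; add luciferase reagent, 10 min ambient; read luminescence.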
* marks the source's active call; other numbers are inactive results; ? = inconclusive; nt = no result given; & = joins results of further samples; [ ] = dose if it differs, or a comment. Unless noted, the call rests on the fitted dose curve; in most records, active means well fitted curve in the direction sought with a large enough effect; inconclusive means small, poorly fitted or top-dose-only effect, or another doubt; inactive means no such curve, though single readings can be large; an effect the other way counts as inactive or inconclusive. The list is partial (hit frequency here may not be typical).

Structure	Tb PFK block	RORgamma inh	Coupling enz	Giardia killer	Gal4-VP16 FLuc	Rab9 prom act	FLuc modulator	ELG1 genotoxic	uPA surface inh	NPC1 prom act
CCN1CCN(C(=O)NCc2ccccc2)CC1	-4%	-9%	1	17	2%	-4%	4%	-1%	-1%	-9%
CCc1nnc(NS(=O)(=O)c2ccc(NS(=O)(=O)c3ccccc3[N+](=O)[O-])cc2)s1	-12%	16%	14	12	-4%	3%	-3%	-1%	3%	0%
CCCNC(=O)c1ccccc1NC(=O)COc1ccc(OC)cc1	2%	39%	1	28	10%	-1%	1%	2%	-4%	-1%
CC1C/C(=N/O)C(C)CN1 (configuration not stated)	1%	-1%	-1	-4	-6%	-2%	0%	1%	1%	0%
COc1ccc(CN2CCN(Cc3nc4ccccc4s3)CC2CCO)c(C)c1C (configuration not stated)	0%	?	-2	-23	5%	-21%	-1%	3%	?	-5%
CCOCCCNC(=S)NCCCNc1nc2c(C)c(C)ccc2cc1C#N	-5%	11µM*	-7	-18	?	-10%	6%	-13%	-13%	-8%
COc1ccc(C(=O)NCC(=O)N2CCCC(C(F)(F)F)C2)cc1OC (configuration not stated)	7%	nt	nt	-14	nt	-6%	-1%	3%	3%	-3%
COC(CNC(=O)c1ccc(N2CCCC2=O)cc1)OC	0%	29%	-1	-1	3%	-2%	5%	2%	1%	-1%
O=C(Nc1nc2ccccc2c(=O)s1)c1ccco1	3%	-13%	0	-18	-4%	-13%	15µM*	0%	?	-2%
Cc1ccc(NC(=O)C2CCC2)cc1S(=O)(=O)N1CCCCCC1	3%	nt	nt	18	nt	-1%	-3%	?	-1%	-2%
CC(C(=O)NN=C(c1ccccc1)c1ccccc1)N1CCCC1 (configuration not stated)	-1%	9%	-1	3	9%[10 µM]	-4%	1%	-5%	8%	-4%
O=C(Cn1cnc2c(cnn2-c2ccccc2)c1=O)Nc1ccc(S(=O)(=O)N2CCOCC2)cc1	-1%	12%	4	17	-5%	-2%	-3%	-1%	4%	-3%
CCc1ccc(Oc2coc3cc(OCC(=O)Nc4cc(C)ccc4C)ccc3c2=O)cc1	-1%	25µM*	6	-1	7.9µM*	-9%	5%	1%	1%	-7%
O=C(Oc1ccccc1)c1c(Cl)cccc1P(=O)(O)O	2%	3%[10 µM]	-2	34[activator]	-1%	-3%	7%	11%	7%	0%
Cc1ccc(NCC(O)C(O)C(O)CO)c(N=Nc2ccccc2)c1C (configuration not stated)	-1%	37%	-4	-7	-6%	-8%	-15%	-2%	9%	-6%
CO[C@H]1C=CO[C@@]2(C)Oc3c(C)c(O)c4c(O)c(c5c(c4c3C2=O)NC2(CCN(CC(C)C)CC2)N=5)=NC(=O)C(C)=CC=C[C@H](C)[C@H](O)[C@@H](C)[C@@H](O)[C@@H](C)[C@H](OC(C)=O)[C@@H]1C	4%	2%	-8	nt	-26%	-5%	?	nt	nt	-1%
O=C(CNC(=S)N(CCCN1CCOCC1)Cc1cccs1)NCc1ccccc1	0%	0%	nt	-14	-14%	-3%	3%	3%	-11%	0%
O=C(O)c1ccc(Cl)c(S(=O)(=O)Nc2ccccc2N2CCOCC2)c1	1%	1%	4	-21	1%	-3%	-5%	-1%	4%	-4%
NCCCCCCNS(=O)(=O)c1cccc2c(Cl)cccc12	nt	25%&-15%	3&3	7	15%&-2%	nt	nt	nt	?	nt
CN1CCCC1CCOC(C)(c1ccccc1)c1ccc(Cl)cc1 (configuration not stated)	nt	nt	nt	21	nt	-23%[46.1 µM]	nt	nt	-21%	-19%[46.1 µM]
CCOc1cc(C2C(C(=O)c3ccco3)=C(O)C(=O)N2CC2CCCO2)ccc1O (configuration not stated)	9%	-5%	-1	-5	3%	0%	0%	1%	5%	-4%
O=C(Nc1nc2ccccc2n1CCN1CCOCC1)c1ccc(Cn2cc([N+](=O)[O-])cn2)o1	-5%	11µM*	-6	25	?	-4%	0%	-14%	-4%	nt
Cc1ccc(NC(=O)CN(C)C(=O)CNC(=O)c2cccs2)cc1	-1%	nt	nt	-1	nt	-5%	2%	-3%	-2%	0%
